# PABP polyA inh = blocks human PABP binding to poly(A) RNA | inhibition, % at 35 µM | P11940 | 290,000 compounds, 1% hits | fluorescence polarization;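 active = 50% or more with normal probe brightness, or confirmed in later tests; about a fifth of its hits are not listed in these tables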;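 note: calls also rest on retests at 20 µM and on dose response follow-up; controls were probe without protein and protein plus probe with vehicle; some compounds called inactive have numbers as strong as hits; many hits fall short of the cut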
# Env fusion inh = blocks HIV Env-driven cell-cell fusion | HeLa-JRFL Env/CEM21 cell fusion, luciferase | inhibition, % at 12.3 µM | 360,000 compounds, 1.1% hits | AID 651610;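 active = mean replicate inhibition score of at least 50 and every replicate individually at or above 50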;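 note: 0% = plate neutral controls and 100% = maraviroc near 300 nM; one replicate is shown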
# Rce1 inhib = inhibitors of yeast Ras-converting enzyme; calls only; yeast membranes, quenched prenylated peptide cleavage fluorescence; 290,000 compounds, 0.27% hits; Q03530;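 active = fall in fluorescence gain of 50% or more versus controls, with final raw signal at or below 3038400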;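 note: plate controls were neutral control wells for no effect and wells lacking membranes for full effect; tested at 10 µM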
# Target sequence (Q03530 whole entry, looked up): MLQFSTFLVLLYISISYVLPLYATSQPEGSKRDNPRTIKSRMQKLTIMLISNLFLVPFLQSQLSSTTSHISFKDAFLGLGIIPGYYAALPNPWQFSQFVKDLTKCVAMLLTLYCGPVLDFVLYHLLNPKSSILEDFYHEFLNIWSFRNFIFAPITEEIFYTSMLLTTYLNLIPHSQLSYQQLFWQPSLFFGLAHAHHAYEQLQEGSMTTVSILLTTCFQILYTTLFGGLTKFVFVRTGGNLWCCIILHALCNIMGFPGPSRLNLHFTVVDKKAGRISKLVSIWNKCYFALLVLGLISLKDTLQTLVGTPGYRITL
# MT1-MMP act inh = blocks activation of human MT1-MMP; 360,000 compounds, 0.061% hits; AID 651647; HT1080 RFP-PRO-GFP cells, GFP/RFP ratio fluorescence, overnight; percent of plate control window, DMSO zero; GFP/RFP ratio change, % at 20 µM; P50281;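 active = GFP/RFP ratio change of at least 30% with cell ATP level not reduced by more than half and red fluorescence within 50% of control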; note: strong numbers were not always called active
#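 Test system: HT1080 RFP-PRO-GFP cells; Benchmarks: DMSO and RFP-L50D-GFP cell wells; Timing: cells overnight before dosing, compound overnight, 37 °C, 5% CO2; Compound: one 20 µM compound dose with 1% DMSO; Read-out: GFP/RFP fluorescence ratio.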
# eIF4H FP inh = inhibitors of RNA binding by human eIF4H; Q15056; eIF4H fluorescence polarization binding assay; inhibition, % at 35 µM; 290,000 compounds, 0.94% hits;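 active = 50% or more with normal probe brightness, or confirmed in later tests; about a fifth of its hits are not listed in these tables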;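 note: calls also rest on retests at 20 µM and on dose response follow-up; 0% = protein and probe with vehicle and 100% = probe without protein; strong numbers were not always called active; many hits fall short of the cut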
# CSC inhib = cancer stem cell inhibition; cancer stem cell-like cells viability, luminescence; inhibition, % at 7.5 µM; 300,000 compounds, 1.1% hits;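 active = mean at 75% or more and at least half the replicates too; tested in HMLE shEcad cells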;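 note: 0% = median of negative and 100% = median of positive control wells; the first replicate is given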
# UUG fidelity = modulators of start codon recognition fidelity in yeast; S. cerevisiae UUG-firefly luciferase reporter, luminescence/redox ratio; 350,000 compounds, 0.13% hits; activity score, % at 18.7 µM;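 active = replicate mean at a twofold rise or more, about +100% in these data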;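 note: firefly luciferase made from a UUG start codon reports start codon fidelity; reporter light over untreated wells divided by growth signal over untreated wells; some hits fall short of that in this replicate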
# MT1-MMP act inh RFP = second read-out of MT1-MMP act inh, no call of its own (marks repeat the call); RFP signal change, %; measured here: RFP expression control read;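 0 = vehicle wells; hits needed this value within 50% of zero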
# The depositor's hits bear a star; i = inactive; x = no result given. An excerpt (hit frequency here may not be typical).
# Keys – A = PABP polyA inh; B = Env fusion inh; C = Rce1 inhib; D = MT1-MMP act inh; E = MT1-MMP act inh RFP; F = eIF4H FP inh; G = CSC inhib; H = UUG fidelity
O=C(O)c1cc([N+](=O)[O-])ccc1C(=O)Nc1ccccc1
  A: 0	B: -38	C: i	D: -1	E: 1	F: -12	G: x	H: 1
CN1CCCC(OC(=O)c2cc(F)c(F)c(F)c2F)C1 (stereo not drawn)
  A: 4	B: 12	C: i	D: -3	E: -1	F: -2	G: -15	H: -15
Cc1ccccc1OCc1nc2ccccc2n1C
  A: -13	B: -258	C: i	D: 0	E: -6	F: -11	G: 7	H: -18
CCN(C(=O)CSc1nccc(=O)[nH]1)C1CCCCC1
  A: x	B: 8	C: x	D: 3	E: 0	F: x	G: 5	H: -6
CCN(CC)C(=O)CCS(=O)(=O)c1cccc2nonc12
  A: 5	B: 8	C: i	D: 4	E: 0	F: -2	G: -5	H: x
CSc1oc(-c2ccccc2)nc1C(N)=O
  A: x	B: -85	C: i	D: 5	E: 0	F: x	G: -19	H: 4
COc1ccc(S(=O)(=O)Nc2ccc3c(c2)C(=O)N([C@H](C)CO)C[C@H](C)[C@@H](CN(C)C(=O)NC2CCCCC2)O3)cc1
  A: x	B: 16	C: x	D: 0	E: 5	F: x	G: -5	H: 3
Cc1ccc(C(=O)Nc2cccc(C(=O)N3CCOCC3)c2)cc1
  A: 8	B: -67	C: i	D: 3	E: 2	F: 2	G: -5	H: -17
O=C(NC1CC1)c1cccc(NC(=O)c2cc(S(=O)(=O)N3CCOCC3)ccc2Cl)c1
  A: x	B: -6	C: x	D: 8	E: 7	F: x	G: x	H: -1
CCCc1cc(C(=O)Nc2ccc(C(C)=O)cc2)no1
  A: -8	B: -23	C: i	D: 6	E: 6	F: -12	G: 1	H: -15
Cc1ccc(NS(=O)(=O)c2ccc(Cl)c(N=Nc3c(O)[nH]c(=O)[nH]c3=O)c2)cc1Cl
  A: x	B: 4	C: x	D: 8	E: 3	F: x	G: -6	H: 7
O=S(=O)(c1ccccc1)c1nc(-c2ccco2)oc1NCCCn1ccnc1
  A: 0	B: x	C: i	D: 1	E: -1	F: -2	G: 2	H: 0
COc1ccccc1C1CCN(C(=O)c2cnn(-c3ccccc3)c2C)CC1
  A: -2	B: 21	C: i	D: 5	E: -3	F: 10	G: -11	H: -2
CSc1ncccc1C(=O)NC1CCCc2c1cnn2-c1ccc(C)c(C)c1 (stereo not drawn)
  A: -2	B: 0	C: i	D: 9	E: -24	F: 9	G: -1	H: -19
CCc1nnc(NC(=O)C2CCCN2S(=O)(=O)c2ccccc2)s1 (stereo not drawn)
  A: -10	B: x	C: i	D: 1	E: -4	F: -5	G: -4	H: -4

# (more compounds)
# Keys – A = PABP polyA inh; B = Env fusion inh; C = Rce1 inhib; D = MT1-MMP act inh; E = MT1-MMP act inh RFP; F = eIF4H FP inh; G = CSC inhib; H = UUG fidelity
CC(C)C(OC(=O)CCC(=O)Nc1nccs1)C(=O)NC1CCCCC1 (stereo not drawn)
  A: -12	B: -11	C: i	D: 0	E: 0	F: -2	G: 7	H: -22
Cc1ccc(C)c2nc(Cl)c(C#N)cc12
  A: -2	B: 3	C: i	D: 2	E: 4	F: -3	G: -2	H: -18
CN(C)C(=O)c1cccc(-c2cnc3c(NC=O)cc(-c4ccc(C(=O)N5CCOCC5)cc4)cn23)c1
  A: x	B: -15	C: x	D: -15	E: 6	F: x	G: x	H: -4
CCn1cc(CNC(=O)c2ccc(Cl)c([N+](=O)[O-])c2)c(C)n1
  A: 5	B: 9	C: i	D: 5	E: -3	F: -1	G: -11	H: x
CS(=O)(=O)c1ncc(Cl)c(C(=O)Nc2ccc(OC(F)F)cc2)n1
  A: 6	B: x	C: i	D: -6	E: -4	F: -10	G: 135*	H: -8
COc1ccc(/C=N/Nc2ncc(Br)cn2)c(OC)c1
  A: 3	B: -31	C: i	D: -1	E: 2	F: 39	G: -2	H: x
COC(=O)c1cn(NC(=O)Cc2ccc(Cl)cc2)c(=O)c2ccccc12
  A: 0	B: 0	C: i	D: -3	E: 0	F: -13	G: -2	H: x
Cc1cc(NC(=O)COC(=O)c2cccc(S(=O)(=O)N(C)C3CCCCC3)c2)no1
  A: 19	B: 11	C: i	D: -4	E: 0	F: 24	G: 8	H: x
CC(=O)c1ccc(N(C(=O)CNC(=O)c2ccco2)C(C(=O)NCC2CCCO2)c2ccccc2)cc1 (stereo not drawn)
  A: 2	B: -16	C: i	D: 3	E: 0	F: -4	G: -16	H: 2
COc1ccc(C(=O)NC(=S)Nc2ccccc2N2CCN(S(C)(=O)=O)CC2)cc1OC
  A: -2	B: x	C: i	D: 11	E: -16	F: -16	G: -3	H: -13
COc1ccc2c(C)cc(N3CCCCCC3)nc2c1
  A: -1	B: -22	C: i	D: 0	E: -1	F: 16	G: x	H: x
CCC(=O)n1nc(-c2ccccc2)nc1SCC(=O)Nc1ccc(C)cc1
  A: 1	B: -44	C: i	D: 1	E: 2	F: 2	G: 1	H: -5
Cc1ccc(CNC(=O)c2ccc(N3CCC4(CC3)CC(c3ccccc3)=NO4)c(NC(=O)c3ccc(Br)cc3)c2)cc1
  A: -12	B: -4	C: i	D: 0	E: 3	F: -9	G: 8	H: -8
O=C1CN(C(=O)CSc2nnc(-c3ccccc3)n2Cc2ccc3c(c2)OCO3)c2ccccc2N1
  A: -4	B: -13	C: i	D: 8	E: -12	F: -7	G: 8	H: 19
CC(=O)Nc1ccc(NC(=O)CCCc2ccccc2)cc1
  A: -9	B: x	C: i	D: 2	E: 2	F: -8	G: -12	H: -17

# A few values from above.
# COc1ccc(C(=O)NC(=S)Nc2ccccc2N2CCN(S(C)(=O)=O)CC2)cc1OC @ CSC inhib: -3
# COc1ccc(/C=N/Nc2ncc(Br)cn2)c(OC)c1 @ MT1-MMP act inh RFP: 2
# O=C1CN(C(=O)CSc2nnc(-c3ccccc3)n2Cc2ccc3c(c2)OCO3)c2ccccc2N1 @ UUG fidelity: 19

# More records follow.
# Keys – A = PABP polyA inh; B = Env fusion inh; C = Rce1 inhib; D = MT1-MMP act inh; E = MT1-MMP act inh RFP; F = eIF4H FP inh; G = CSC inhib; H = UUG fidelity
O=C(NC1CCSC1=O)c1ccccc1 (stereo not drawn)
  A: -3	B: -32	C: i	D: 0	E: -1	F: -9	G: x	H: -18
CC(N)(C(=O)O)c1cccc(OCc2cccc(Cl)c2)c1 (stereo not drawn)
  A: 3	B: -19	C: i	D: -6	E: 4	F: 10	G: -6	H: x
Cc1nc2ccccc2nc(C)c1=NO
  A: -5	B: -31	C: i	D: -1	E: 3	F: 3	G: 4	H: -12
Cc1nc(NC(=O)COC(=O)/C=C/c2ccco2)c(Cl)cc1Cl
  A: x	B: x	C: x	D: -2	E: 1	F: x	G: 10	H: -10
O=C(CN1CCOc2ccccc21)NC1CCN(Cc2ccccc2)CC1
  A: -3	B: -2	C: i	D: 0	E: 1	F: -6	G: -4	H: -2
O=C(NCc1ccc(Cl)c(Cl)c1)c1cc(C2CCCCN2C(=O)C2CCCCC2)on1 (stereo not drawn)
  A: x	B: 15	C: x	D: -7	E: -14	F: x	G: x	H: -4
C=CCSc1nnc(NC(=O)COc2ccccc2)s1
  A: -3	B: 3	C: i	D: -1	E: -2	F: -2	G: -2	H: x
CCCS(=O)(=O)N1CCCC(C(=O)NCCN(CC)c2ccccc2)C1 (stereo not drawn)
  A: 5	B: x	C: i	D: -2	E: 1	F: 0	G: -14	H: x
COc1ccc(C(=O)COC(=O)Cn2[nH]c(=O)c3ccccc3c2=O)c(OC)c1
  A: x	B: -1	C: i	D: -3	E: 2	F: x	G: -11	H: -10
CCOc1ccccc1NC(=O)NNC(=O)c1ccc2ccccc2c1
  A: 2	B: 7	C: i	D: -3	E: -2	F: -14	G: x	H: -10
Cc1cc(C)n(C(=O)c2ccc(NC(=O)C3CC3)cc2)n1
  A: -12	B: -4	C: i	D: -2	E: 0	F: -9	G: 5	H: -6
CCOC(=O)N1CCN(c2ccc(S(=O)(=O)N3CCOCC3)cc2[N+](=O)[O-])CC1
  A: x	B: -2	C: i	D: 4	E: 2	F: x	G: 3	H: x
COc1ccc(C(CNC(=O)c2cc3ccccc3o2)N2CCCC2)cc1 (stereo not drawn)
  A: x	B: 27	C: x	D: -3	E: 0	F: x	G: 19	H: 8
COc1cc(N(C)C)c([N+](=O)[O-])cc1C(=O)N1CCOCC1
  A: 3	B: -5	C: i	D: -4	E: 1	F: 8	G: 1	H: -10
CCN(CC)CCNS(=O)(=O)c1ccc(OC)c(Br)c1
  A: 47	B: -26	C: i	D: 6	E: 8	F: -13	G: 4	H: -19

# Further entries.
# Keys – A = PABP polyA inh; B = Env fusion inh; C = Rce1 inhib; D = MT1-MMP act inh; E = MT1-MMP act inh RFP; F = eIF4H FP inh; G = CSC inhib; H = UUG fidelity
CN(CCc1ccccn1)C(=O)CCC1CCCN(C(=O)c2c(F)ccc(F)c2F)C1 (stereo not drawn)
  A: 10	B: -4	C: i	D: 0	E: 1	F: -4	G: -7	H: -4
COc1ccc(NC(=O)CN(C)C(=O)CCc2ccccc2)cc1
  A: 3	B: -18	C: i	D: -2	E: -1	F: -8	G: 0	H: -22
Cc1ccccc1C(=O)Nc1c(C)[nH]c(=O)[nH]c1=O
  A: -11	B: 5	C: i	D: 0	E: 2	F: -17	G: 7	H: -11
O=C(CCn1c(=O)c2ccccc2n(CC(=O)N2CCN(c3ccccc3)CC2)c1=O)NCc1ccco1
  A: -8	B: -4	C: i	D: 2	E: 0	F: -9	G: -1	H: -13
Cc1cc(C(=O)Nc2c(C)n(C)n(-c3ccccc3)c2=O)cs1
  A: 0	B: -27	C: i	D: -2	E: -6	F: -2	G: -7	H: -16
O=S(=O)(NCc1ccccn1)c1ccc(Cl)s1
  A: 0	B: -3	C: i	D: 4	E: 0	F: 14	G: -8	H: x
Cc1ccccc1NC(=O)c1csc2c1CCCC2
  A: 40	B: -50	C: i	D: -5	E: 0	F: 4	G: -4	H: -17
CCc1ccc(-n2c(=S)sc3c(=O)n(-c4ccccc4OC)c(=S)[nH]c32)cc1
  A: 3	B: 3	C: i	D: -3	E: -2	F: 5	G: x	H: 6
O=C(c1c[nH]c(=O)n(-c2ccccc2)c1=O)N1CCc2ccccc21
  A: -19	B: 6	C: x	D: -1	E: 1	F: -8	G: -6	H: -6
O=C(c1ccc(CNS(=O)(=O)c2ccccc2)cc1)N1CCN(Cc2ccccc2)CC1
  A: -3	B: 79*	C: i	D: -4	E: -20	F: 1	G: 2	H: -8
C/C(=N/NC(=O)c1cc(-c2ccc(Br)s2)[nH]n1)c1ccco1
  A: -5	B: -30	C: i	D: 8	E: 5	F: -9	G: -6	H: x
O=C(CCNS(=O)(=O)c1cccc(C(F)(F)F)c1)NCc1ccco1
  A: x	B: x	C: x	D: 0	E: 0	F: x	G: -4	H: -17
CC[C@H](C)[C@H](NC(=O)c1ccccc1)C(=O)Nc1ccc(S(=O)(=O)Nc2cc(C)nc(C)n2)cc1
  A: 3	B: 14	C: i	D: -2	E: 1	F: -10	G: 3	H: -1
FC(F)Sc1ccc(Nc2ncnc3nc[nH]c23)cc1
  A: 0	B: -41	C: i	D: 4	E: -2	F: 6	G: -7	H: -24

# Some of the entries above, set out differently.
molecule	PABP polyA inh	Env fusion inh	Rce1 inhib	MT1-MMP act inh	MT1-MMP act inh RFP	eIF4H FP inh	CSC inhib	UUG fidelity
FC(F)Sc1ccc(Nc2ncnc3nc[nH]c23)cc1	0	-41	i	4	-2	6	-7	-24
COc1ccc(NC(=O)CN(C)C(=O)CCc2ccccc2)cc1	3	-18	i	-2	-1	-8	0	-22
C/C(=N/NC(=O)c1cc(-c2ccc(Br)s2)[nH]n1)c1ccco1	-5	-30	i	8	5	-9	-6	x
O=C(CCn1c(=O)c2ccccc2n(CC(=O)N2CCN(c3ccccc3)CC2)c1=O)NCc1ccco1	-8	-4	i	2	0	-9	-1	-13

# High-throughput results: PubChem, several laboratories
